Screens from PubChem BioAssay.
Beta cell apopt – beta cell apoptosis inhibition; INS-1E cytokine-induced death, ATP luminescence, 48 h; percent of positive-control rescue, neutral wells zero; protection from apoptosis, % (test concentration not listed); hit rate 0.8% among 300,000; AID 435005;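 active = all replicates at 75% or more, or half of them and the mean; inconclusive = half reach 75% but not the mean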;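 also: 0% = cytokine-treated negative control wells and 100% = positive control rescue; higher means more ATP so stronger rescue from cytokine killing; wells of about 40 µL received 100 nL stock; the first replicate is given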
T cruzi inh – T. cruzi replication inhibition | T. cruzi beta-gal in NIH3T3, luminescence, 90 h | inhibition, % (test concentration not listed) | hit rate 1.4% among 300,000 | AID 1885;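 active = mean inhibition across valid replicates above about 55%, limit read from the data; inconclusive = mean below that limit but half or more replicates reach it; inactive = mean below it, under half of replicates reach it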;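 also: signal also drops with host cell toxicity which is not excluded here; 0% = plate median of DMSO wells and 100% = zero luminescence signal; higher percent means less beta-gal luminescence so fewer parasites; stock transfer was 50 nL into about 50 µL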
AF4-AF9 inh – inhibitors of human MLL-AF4/AF9 interaction | AlphaScreen, biotin-AF4 peptide binding to FLAG-AF9 | inhibition, % at 10 µM | hit rate 0.47% among 350,000;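 active = every replicate reaching a set inhibition limit, whatever the replicate mean, cut at about 25% in these data; inconclusive = mean inhibition reaches that limit but some replicates miss it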;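 also: 0% = plate neutral control median and 100% = total signal loss; the record names both 10 and 1 µM as test concentration; the first replicate is given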
Target sequence (P42568 whole entry, looked up): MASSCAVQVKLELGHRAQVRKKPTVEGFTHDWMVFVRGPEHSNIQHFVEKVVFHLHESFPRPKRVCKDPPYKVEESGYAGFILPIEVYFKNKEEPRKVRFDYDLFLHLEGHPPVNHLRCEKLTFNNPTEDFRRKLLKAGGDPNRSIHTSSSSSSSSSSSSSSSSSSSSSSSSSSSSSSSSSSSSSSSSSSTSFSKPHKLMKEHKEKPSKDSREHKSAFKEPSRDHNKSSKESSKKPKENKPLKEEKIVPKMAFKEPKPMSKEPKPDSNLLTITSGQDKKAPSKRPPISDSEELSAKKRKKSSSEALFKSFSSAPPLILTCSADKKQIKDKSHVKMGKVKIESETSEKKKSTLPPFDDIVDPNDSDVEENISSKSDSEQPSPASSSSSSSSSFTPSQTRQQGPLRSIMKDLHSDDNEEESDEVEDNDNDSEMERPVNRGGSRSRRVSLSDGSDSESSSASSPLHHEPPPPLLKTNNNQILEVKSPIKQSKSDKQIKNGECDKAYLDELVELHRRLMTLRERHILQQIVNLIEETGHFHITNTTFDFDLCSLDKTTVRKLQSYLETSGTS
RanGTP-Impb inh – inhibitors of RanGTP-importin-beta interaction, primary screen, biochemical, FRET, CFP-Ran, YFP-importin-beta, homogeneous; inhibition, % (test concentration not listed); cell-free CFP-Ran/YFP-importin-beta FRET ratio; AID 2216; hit rate 1.1% among 300,000;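 active = most replicates above 15%; inconclusive = exactly half above 15%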;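 also: 0% = DMSO wells and 100% = Ran loaded with GDP instead of GTP; wells of about 40 µL received 100 nL stock; the first replicate is given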
Ecoli rRNA inh – inhibitors of bacterial rRNA selective over humanized ribosomes. E. coli WT GFP vs humanized-ribosome RFP mutants, fluorescence, 24 h; active compounds read low; DMSO median 0, no signal -100. GFP signal change (wild-type ribosome), % (concentration not given with the values). hit rate 1.6% among 350,000. AID 720706;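 active = significant combined selectivity score with lowered wild-type GFP, culture density cut under 30%, mutant RFP and density less affected; inactive = any of these conditions unmet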; also: one replicate is shown; some compounds called inactive have numbers as strong as hits
Calb FLC – affects C. albicans growth with fluconazole. C. albicans CaCi-2 (fluconazole-resistant clinical isolate) + fluconazole, Alamar Blue growth, 48 h. growth inhibition, % (concentration not given with the values). hit rate 0.57% among 300,000. AID 1979;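 active = most replicates above 75%; inconclusive = exactly half above 75%; inactive = most below 75%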;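 also: all wells also contain fluconazole at 8 µg/ml as a sub-toxic cotreatment; 0% = median of DMSO wells and 100% = median of geldanamycin control wells; wells of about 8 µL received 7.5 nL stock; the first replicate is given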
Bfl-1 A1 inh – inhibitors of the anti-apoptotic protein A1, read as caspase activation; MEF A1-2A-BIM cells, Caspase-Glo 3/7 luminescence, 3 h; percent of clofoctol response, vehicle zero; caspase activation, % (test concentration not listed); hit rate 0.066% among 330,000; AID 2462;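 active = over half of replicate activation scores above 10%, or exactly half above 10 with the replicate mean above 10; inconclusive = replicate mean below 10 yet half the replicates above 10; inactive = over half of replicates below 10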;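 also: wells of about 30 µL received 50 nL stock; many hits fall short of the cut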
Vif A3G – inhibitors of Vif binding to APOBEC3G peptide, primary screen, biochemical, TR-FRET, GST-Vif 1-94, biotin-A3G peptide, dose response retest (AID 1117319) | TR-FRET GST-Vif / biotin-A3G peptide binding; higher % means a stronger effect; test concentration not given here; strong numbers were not always called active | inhibition, %, or IC50 in µM where a hit was titrated | hit rate 0.57% among 260,000;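 active = above the screen mean plus three standard deviations and confirmed in dose response; inconclusive = results disagree or hit not tested in dose response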;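 also: Vif residues 1-94 fused to GST binding biotinylated APOBEC3G peptide 110-148; 0% = full assay without inhibitor and 100% = GST in place of GST-Vif; retest series ran down from 100 µM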
Ecoli rRNA inh OD600 – second read-out of Ecoli rRNA inh, no call of its own (marks repeat the call); OD600 change, %; measured here: OD600 growth;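 optical density of the mix in the first replicate; 0 = DMSO median and -100 = no signal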
Ecoli rRNA inh RFP – also measured in Ecoli rRNA inh; calls as there; RFP signal change, %; measured here: RFP humanized mutant strains;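 first replicate; 0 = DMSO median and -100 = no signal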
* = called active by the depositor; ? = inconclusive; nt = not tested or not shown; & = joins results of further samples. A portion of the library; count on the stated rates, not on these rows.

SMILES	Beta cell apopt	T cruzi inh	AF4-AF9 inh	RanGTP-Impb inh	Ecoli rRNA inh	Ecoli rRNA inh OD600	Ecoli rRNA inh RFP	Calb FLC	Bfl-1 A1 inh	Vif A3G
CSc1nsc(SC)c1NC(=O)OCCc1ccccn1	-3	8	nt	3.9	nt	nt	nt	0	1.0	-4%
Cc1[nH]c2ccccc2c1C(=O)NS(=O)(=O)Nc1ccc(Cl)cc1	nt	3	-3.5	-2.7	7	2	-0.1	-1	0.1	12%
COCCn1c(SCC(=O)NC(=O)Cc2ccccc2)nc2ccccc2c1=O	1	nt	-1.6	nt	5	13	-3.4	nt	-0.8	nt
Nn1cc(-c2ccccc2)nc1SCC(=O)NC1CCS(=O)(=O)C1 (stereo unspecified)	-4	-9	nt	0.1	nt	nt	nt	19	0.5	5%
CCCc1cc(C(=O)O)c2ccccc2n1	-2	-22	nt	3.4	nt	nt	nt	22	0.5	7%
COc1ccc(CCNC(=O)c2nnn(-c3cc(C)cc(C)c3)c2N)cc1OC	-1	-4	nt	3.6	nt	nt	nt	-24	-0.5	6%
Cc1noc(C)c1COc1cccc(C(=O)Nc2cccnc2)c1	-1	0	-3.3	12	-8	-12	1.5	-11	0.5	-2%
CCCSc1nnc(C(C)C)n1N	-4	-5	nt	2.5	nt	nt	nt	14	0.0	-3%
O=C(CCC(=O)Nc1cccc(C(F)(F)F)c1)NCC1CCCO1 (stereo unspecified)	1	-1	-0.1	0.7	17	12	13	-2	1.3	nt
CCOC(=O)N1CCN(C/C(Cl)=C/c2ccccc2)CC1	-3	-10	-19	1.6	0	-12	0.9	0	0.6	nt
CCCCc1nc(N2CCN(C(=O)c3ccco3)CC2)c(C#N)c2c1CCCC2	18	38	1.2	1.9	-17	-18	-4.9	4	0.7	nt
CCN1CC(CN(C)Cc2nc(-c3ccc(C(F)(F)F)cc3)oc2C)CC1=O (stereo unspecified)	0	59*	-1.7	-0.3	3	0	0.7	-37	0.5	2%
CCC1CCCCN1CCN1C(=O)C2C(C(=O)Nc3cccc(OC)c3)C3C=CC2(O3)C1C(=O)NC1CCCCC1 (stereo unspecified)	-2	17	2.4	-2.9	2	-5	-2.0	-9	0.8	nt
Fc1ccccc1CN1CCC(Cc2ccccc2)CC1	0	14	-3.3	-1.0	-4	-6	2.0	-8	1.1	nt
Cc1nc([N+](=O)[O-])c(C(=O)OCc2ccccc2)n1C	nt	-21	0.7	3.8	3	2	-0.6	8	-1.3	11%
CC(NC(=O)c1cc([N+](=O)[O-])cc([N+](=O)[O-])c1)C1CC2CCC1C2 (stereo unspecified)	-9	17	-2.3	1.6	-15	-5	-1.7	11	-0.2	nt
CCOC(=O)C1(Cc2cccc(Cl)c2)CCCN(C(=O)c2cc(CC)on2)C1 (stereo unspecified)	-4	10	-0.4	?	-37	-42	-11	-1	-0.2	-1%
O=C(COc1ccccc1)Nc1c2c(nn1-c1ccccc1)CS(=O)C2 (stereo unspecified)	-2	-9	1.0	5.1	6	6	-2.7	-3	0.3	3%
O=C(Nc1ccc2nc3n(c(=O)c2c1)CCCC3)c1ccccc1[N+](=O)[O-]	11	5	7.9	?	-7	2	5.2	0	0.3	7%
O=C(Oc1ccc(Br)cc1)c1cncc(Br)c1	-5	-9	nt	-2.9	nt	nt	nt	-14	0.8	-4%
COC(=O)c1[nH]c2cc(OC)ccc2c1NC(=O)CCN1CCCC(C)(C)C1	-1	-17	nt	-0.1	nt	nt	nt	15	-0.4	-3%
CC(C)CCNC(=O)CNC(=S)N(Cc1ccccc1)Cc1cccnc1	-3	61*	nt	6.2	nt	nt	nt	4	-0.4	nt
COc1ccc(N(CC(=O)N2CCN(c3ccccc3F)CC2)S(=O)(=O)c2c(C)noc2C)cc1	6	16	-4.0	3.2	3	8	-1.0	-1	0.2	nt
N#C/C(=C(/O)c1ccco1)c1nc2ccccc2s1	0&2	-16&-12	1.3	4.1&-10	-24	-40	5.6	6&2	-4.6&-7.3	-2%&11%
COc1c(C)cc(C(=O)C2CCCN(C(=O)CCCn3cncn3)C2)cc1C (stereo unspecified)	-4	0	8.3	7.6	1	-3	1.7	4	-0.2	nt
CC(=O)c1ccc(NC(=O)CSc2nc(C3CC3)nc3ccccc23)cc1	6	7	-2.5	1.5	0	-13	-2.6	-3	0.3	nt
O=C(NC1CCCCC1)C(Cc1ccccc1)N1C(=O)C2C3CCC(C3)C2C1=O (stereo unspecified)	3	10	nt	-0.8	nt	nt	nt	-12	-0.9	6%
O=C(CCN1C(=O)COc2ccccc21)N1CCN(c2ccccn2)CC1	1	10	-4.8	2.5	4	-10	1.2	10	-0.8	-2%
CCOC(=O)c1cnn(-c2nc(-c3ccccc3F)cs2)c1C(F)(F)F	-1	-5	nt	-0.4	nt	nt	nt	-2	-0.7	?
O=C(COc1ccc(S(=O)(=O)N2CCCC2)cc1)NCc1ccco1	-3	-12	nt	6.3	nt	nt	nt	4	0.1	18%
COC(=O)C(C)Sc1ccc2nnc(-c3ccc(F)cc3)n2n1 (stereo unspecified)	nt	-10	-53	1.1	-2	-7	-1.5	0	nt	7%
Nn1c(SCC(=O)NC(=O)Nc2ccc3c(c2)OCCO3)nnc1C1CC1	-9	-7	-0.3	-2.2	12	8	0.7	-19	0.7	nt
COc1cccc(NC(=O)C(=S)NC2CCCCC2)c1	-2	19	11	2.9	-36	-56	-7.5	2	-8.9	23%
O=C(NCc1ccoc1)c1ccc(NC(=O)c2ccccc2Cl)cc1	8	4	nt	-2.5	nt	nt	nt	28	-0.4	6%
COc1cc2c(cc1OC)C(COc1cccc(C(F)(F)F)c1)NCC2 (stereo unspecified)	-2	30	6.6	2.5	0	-10	1.9	-6	0.3	nt
O=C(NCCCN1CCCC1=O)c1ccc2c(c1)OCO2	5	-11	-1.8	nt	10	8	-4.2	-20	-0.5	-1%
O=C(N/N=C/c1ccccc1[N+](=O)[O-])c1ccc(COc2ccccc2-c2ccccc2)cc1	5	13	nt	-0.9	nt	nt	nt	-2	-0.8	20%
CC(=O)Nc1ccc(NC(=S)NC(=O)/C=C/c2ccco2)cc1	-10	-5	-4.5	0.3	4	2	3.0	-3	0.2	nt
CC(C)(C)c1cc[n+](C2=C([O-])c3ccccc3C(=O)/C2=N\S(=O)(=O)c2ccccc2)cc1	82*	13	-4.2	5.6	18	7	1.9	7	0.0	0%
Cc1ccccc1OCc1nc2ccccc2c(=O)n1/N=C/c1ccco1	0	11	nt	3.4	nt	nt	nt	1	-0.6	-7%
Cc1cccc(-n2c(N)cc(=O)nc2SCC(=O)NC2CCCCC2)c1	-10	-5	nt	-1.0	nt	nt	nt	-5	-1.8	94µM*
CCCCNC(=O)C1CCC(=O)N1CCc1ccccc1 (stereo unspecified)	nt	-4	-1.8	0.3	0	6	-3.8	-4	0.1	5%
CCCCc1c(O)nc(SCC(=O)c2ccccc2)[nH]c1=O	2	-9	nt	-0.4	nt	nt	nt	2	-0.2	25%
CCOC(=O)c1c(NC(=O)Cc2cccs2)sc(C(=O)NC2CCCCC2)c1C	29	-25	nt	-2.3	nt	nt	nt	-2	0.1	-5%
CCOC(=O)C1CCN(C(=O)c2cc3c(OC)c(OC)c(OC)cc3[nH]2)CC1	1	-2	-6.1	2.9	-7	-20	-2.0	12	-1.1	10%
O=C(CSc1ccccn1)Nc1ccccc1F	-7	8	nt	-3.6	nt	nt	nt	-1	0.8	5%
CCO[C@@H]1OC(C(=O)NCc2ccccc2)=C[C@H](c2ccc(C(F)(F)F)cc2)[C@H]1CCCO	1	23	-0.3	3.7	-7	-16	11	11	0.7	-2%
CNC(=O)c1nc(C)n(-c2ccc([N+](=O)[O-])cc2)n1	nt	-13	-1.9	-4.6	22	14	0.3	-5	-0.2	-1%
COc1cccc(Oc2nc(-c3ccncc3)nc3ccccc23)c1	-3	55*	-1.4	4.1	-10	8	3.2	5	2.1	nt
CCSc1nnc(NC(=O)c2cccc3ccccc23)s1	nt	-1	7.1	3.8	2	4	-1.1	1	-0.1	10%
O=C1/C(=C/c2c[nH]c3ccccc23)CCC/C1=C\c1c[nH]c2ccccc12	-3	44	nt	-50	nt	nt	nt	3	0.2	32%
CCOC(=O)/C(=C\c1cccnc1)C(=O)c1cc(C(C)=O)c(Nc2ccccc2)s1	105*	54	nt	1.2	nt	nt	nt	-7	22*	2%
Cc1c(NC(=O)COC(=O)C2CC3C=CC2C3)c(=O)n(-c2ccccc2)n1C (stereo unspecified)	-3	nt	nt	-1.9	nt	nt	nt	-1	0.3	-11%
Cc1cccc(N(C(=O)C(F)(F)F)C(C(=O)NC2CCCCC2)c2cccs2)c1 (stereo unspecified)	nt	59*	nt	-0.2	nt	nt	nt	-9	-0.1	1%
CCc1ccccc1N(CC(=O)NCC1CCCO1)C(=O)CCC(=O)Nc1cc(C)on1 (stereo unspecified)	0	-10	0.8	0.4	-2	15	-3.9	-3	0.0	nt
CC(C)n1c(NCc2ccccc2O)nc2ccccc21	-2	16	1.8	-2.0	-27	-37	-4.3	11	-0.4	nt
O=C(N/N=C/c1c[nH]c2ccccc12)c1cccc(O)c1	-2	17	3.2	0.1	3	0	2.7	1	-3.7	-2%
O=C(O)c1cccc(NS(=O)(=O)c2ccc(C3CCCCC3)cc2)c1	-3	-7	nt	?	nt	nt	nt	-3	0.5	nt
O=C(CN1C(=O)NC2(CCCCCC2)C1=O)c1ccc(F)cc1	-3	-14	0.4	nt	1	5	-1.9	-2	?	6%
CC(C)CNC(=O)CN1C(=O)NC2(CCc3ccccc32)C1=O (stereo unspecified)	nt	-11	-3.4	0.1	3	1	-1.1	-2	-0.8	nt

The list goes on:
SMILES	Beta cell apopt	T cruzi inh	AF4-AF9 inh	RanGTP-Impb inh	Ecoli rRNA inh	Ecoli rRNA inh OD600	Ecoli rRNA inh RFP	Calb FLC	Bfl-1 A1 inh	Vif A3G
CCc1c(C)c2ccc(O)c(CN3CCCC3)c2oc1=O	-1	-15	-0.7	11	15	11	2.7	-8	0.9	-11%
O=C(CN1C(=O)c2ccccc2C1=O)N1CCOCC1	-11	-7	nt	11	nt	nt	nt	-3	-0.4	1%
COc1ccc(CN2CCN(CCCCOc3ccc(Cl)cc3)CC2)c(OC)c1OC	30	43	10	3.1	13	2	0.8	-36	-0.2	-6%
COc1ccc2nc(/C=N/NC(=O)CCNC(=O)OC(C)(C)C)ccc2c1	nt	5	-2.0	1.0	-2	5	-0.3	2	-2.6	4%
Cc1cc2n(n1)C(c1c[nH]c3ccccc13)Nc1ccccc1-2 (stereo unspecified)	2	18	nt	-1.4	nt	nt	nt	45	-0.1	10%
COc1ccc(NC(=O)[C@@H]2[C@@H]3C(=O)N(C4CCCCC4)C(=O)[C@@H]3C3c4ccccc4C=CN32)cc1 (stereo partly specified)	-1	8	nt	-1.1	nt	nt	nt	-4	0.0	2%&5%
COC(=O)C1=C(CSc2nc3c(cc2C#N)CN(C)CC3)OC(N)=C(C#N)C1c1ccc(F)cc1 (stereo unspecified)	-9	29	nt	?	nt	nt	nt	19	-0.1	31%
